Choline anaer gr = blocks anaerobic gram-negative growth on choline; 55,000 tested, 0.2% active; calls only; Gram-negative bacterium anaerobic choline minimal medium, absorbance growth; hits give low values; many inactives read as strong as hits in the columns shown; AID 1963822;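 active = growth z-score on choline under -2 at 7 or 20 h with little or no fall on glycerol, limits in tiers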;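 note: stock transfer was 300 nL into about 50 µL; the organism is E. coli; final concentration not given here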
Choline anaer gr early = recorded beside Choline anaer gr, whose call it bears; z-score; measured here: choline growth z-score, timepoint 1;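 score of optical density at 7 h as mean of two plates; lower means less growth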
Active calls of the source: *; i = inactive; + = active, no number. Not all compounds are listed, so the mix of outcomes need not match the whole.

SMILES	Choline anaer gr	Choline anaer gr early
COC(=O)C1=C(C)NC(C)=C(C(=O)OC)C1c1ccc(Cl)cc1	i	0.29
CCCCOC(=O)c1cc2c(cn1)[nH]c1ccccc12	i	0.94
CC1=C(c2ccc(C)cc2)S(=O)(=O)N=C1N1CCCN(C(=O)C(C)(C)C)CC1	i	-0.06
Cc1ccc(S(=O)(=O)N2CCCN(c3nc4cccnc4s3)CC2)cc1	i	0.57
COc1ccc(OC)c(S(=O)(=O)Nc2ccc(N3CCNCC3)c(C(=O)N3CCOCC3)c2)c1	i	-1.7
O=C(Nc1cccc(Br)c1)NC(C(=O)N1CCc2ccccc21)c1ccccc1 (stereo not given)	i	-0.16
O=c1[nH]c2ccc(NCc3ccccn3)cc2[nH]1	i	0.45
C=CCn1c(=O)c2ccc(C(=O)NCC(C)C)cc2n2c(=O)n(CC(=O)NC(C)C)nc12	i	-0.91
Cc1nc(N2CCc3ccccc32)nc2c1C(=O)CCC2	i	0.71
Cc1ccc(C(=O)Nc2nnc(S(=O)(=O)N3CCC(C)CC3)s2)cc1	i	0.36
CCCCSc1nn2c(=O)c(Cc3ccccc3)nnc2s1	i	0.29
CN(C)c1ncccc1NS(=O)(=O)c1ccc(F)cc1	i	0.75
CCCCOc1ccc(C2CC(=O)C3=C(C2)Nc2ccccc2N(C(C)=O)C3c2ccccc2)cc1 (stereo not given)	i	0.59
Cc1ccc(-c2nnc(SCc3noc(CCC(=O)Nc4cc(C)on4)n3)o2)cc1	i	-0.16
CCOc1ccccc1N(Cc1nc2nc(C)cc(=O)n2[nH]1)C(=O)C(C)C	i	0.1
CCCCNC(=O)CN1C(=O)CCn2nc(C)cc21	i	-0.42
COc1ccc(CSc2nccc3c2ccn3CC(=O)Nc2ccc(OC)cc2)cc1	i	0.79
CCCCC[C@H](O)/C=C/[C@H]1C=CC(=O)[C@H]1C/C=C\CCCC(=O)O	i	1.1
Cc1cc(=O)[nH]c(N2CCN(Cc3ccc4c(c3)OCO4)CC2)n1	i	0.96
O=c1c2c(nc3nc(Cc4ccc(Cl)cc4)[nH]n13)CCCC2	i	1.1
O=C(CC1Nc2ccccc2OC1=O)Nc1ccccc1 (stereo not given)	i	0.88
COc1cccc(CNC(=O)CSc2nc3cc(-c4ccccc4)sc3c(=O)n2C)c1	i	-0.54
Cc1nc2scc(C)n2c(=O)c1NC(=O)Cc1ccc(Cl)cc1	+	-0.75*
CN1CCN(C(=O)CN2C(=O)C3CCCCN3c3ccc(C(=O)N(C)C)cc32)CC1 (stereo not given)	i	-0.29
O=c1n(Cc2cccc(Cl)c2)nc2c(S(=O)(=O)N3CCCC3)cccn12	i	0.41
CCOC(=O)c1cnc(SCC(=O)Nc2cc(C)cc(C)c2)nc1N	i	-0.91
CCc1ccc(OCC(=O)NCc2csc(-c3ccc(OC)cc3)n2)cc1	i	-1.1
CCCCc1nnc(NC(=O)Nc2[nH]c(C)c(C(=O)OCC)c2C)s1	i	-0.44
COCC(=O)NCC(c1ccc(N(C)C)cc1)N1CCOCC1 (stereo not given)	i	0.37
Cc1ccccc1N1CCN(S(=O)(=O)c2cc(-c3nnc(C4CC4)o3)co2)CC1	i	1
CN(C)C(=O)c1ccc2c(c1)nc(CN1CCN(C(=O)Nc3ccccc3)CC1)n2C	i	-0.15
COc1ccc(C2CC(=O)C3=C(C2)Nc2nnnn2C3c2cccnc2)cc1 (stereo not given)	i	0.09
CCCCCN1C(C(=O)c2ccccc2)=C(NC(=O)c2ccccc2OC)c2ccccc2S1(=O)=O	i	0.85
O=c1cc(CN2CCc3ccccc3C2)nc2nc(NCc3ccccc3)[nH]n12	i	-0.71
Cn1nc(-c2nc(C3CC3)no2)c2c1CCN(S(=O)(=O)Cc1ccc(F)cc1)C2	i	-0.04
COc1cc2c(=O)n(Cc3ccccc3)c(=O)n(CC(=O)C(C)(C)C)c2cc1OC	i	-0.67
O=C(CN1C(=O)C2CCCC2=Nc2ccccc21)NC1CCc2ccccc21 (stereo not given)	i	0.14
O=C(Cc1ccc(NC(=O)N2CCSc3ncccc32)cc1)Nc1ccc(Br)cc1	i	-0.94
CCC(=O)N(Cc1ccccc1)c1nc2nc(C)c(Cc3ccccc3)c(=O)n2[nH]1	i	-0.04
CN(C)CCCO[C@@H]1[C@H]2OC(C)(C)O[C@H]2O[C@@H]1[C@H](O)CO	i	0.92
C=CCn1c(=O)c(C(=O)NCc2ccc3c(c2)OCO3)c(O)c2ccccc21	i	2.8
Cc1ccc2nc(CN(Cc3ccc(C(C)C)cc3)CC(C)C)cc(=O)n2c1	i	1.7
Cc1ccc(CNC(=O)Cn2c(=O)n(Cc3ccccc3)c(=O)c3ccccc32)cc1	i	0.07
Cc1cc(-c2nnc3sc(COc4ccc(Br)cc4)nn23)n[nH]1	i	0.91
O=C(Nc1ccc2c(c1)CCC2)C1CC(=O)N(CCc2c[nH]c3ccc(Cl)cc23)C1 (stereo not given)	i	1.4
O=C1COc2ccc(S(=O)(=O)NC3CCCCC3)cc2N1Cc1noc(C2CCC2)n1	i	0.47
O=C(Nc1cccc(F)c1)c1ccc2cnn(Cc3cccc(F)c3)c2c1	i	1.1
COc1ccc(COc2ccc(=O)n(-c3ccc(C(=O)Nc4ccc(OC)c(Cl)c4)cc3)n2)cc1	i	0.67
Cc1ccc(NC(=O)COc2cccc3ccc(N4CCCC4)nc23)cc1	i	1.4
CN1CCc2c(sc3c2CN(C(=O)Nc2ccc4c(c2)OCCO4)C(c2ccc(F)cc2)c2cccn2-3)C1 (stereo not given)	i	-0.28
CCN(Cc1ccccc1)C(=O)c1cc2c(=O)n3ccccc3nc2n1C	i	0.19
CC(=O)O[C@]1(C(C)=O)CC[C@H]2[C@@H]3C[C@H](C)C4=CC(=O)C=C[C@]4(C)[C@@]3(F)[C@H](O)C[C@@]21C	i	0.89
Clc1ccccc1-n1ncc2c(N3CCN(c4ccccc4)CC3)ncnc21	i	0.65
NC(=O)CSc1nccn(-c2ccc(Cl)cc2)c1=O	i	-1.6
Brc1ccc(-c2[nH]c(-c3cccnc3)nc2-c2ccccc2)cc1	i	-0.55
CCCc1cc(C2CCCN2Cc2cccc(Br)c2)no1 (stereo not given)	i	1.6
CCn1c(=O)n(Cc2ccc(C)cc2)c2ccccc21	i	-0.97
CC(C)NC(=O)c1ccc2c(=O)n(CC3CCCO3)c(SCC(=O)c3ccc4c(c3)OCO4)nc2c1 (stereo not given)	i	2.6
Cc1noc(C)c1C1CCCN1C(=O)C1CCC1 (stereo not given)	i	0.16
COCc1nnc(NC(=O)COc2ccccc2-c2nc(-c3ccc(OC)cc3)no2)s1	i	0.49
Next compounds:
SMILES	Choline anaer gr	Choline anaer gr early
O=C(NCc1cccc(Cl)c1)C1CCCN(c2nc3ncccc3n3cccc23)C1 (stereo not given)	i	1.2
COc1ccc(Cn2nnc3cc(C(=O)NCc4ccc(Cl)cc4)ccc32)cc1	i	0.13
O=C(OCc1ccccc1)c1nc2ccccc2nc1NCCc1ccccc1	i	0.25
Cc1c(Cl)cccc1NS(=O)(=O)c1cc(-c2nc(C(C)(C)C)cs2)cs1	i	0.04
Cc1nn(C)c2nc(OC(C)C(=O)N3CCc4ccccc4C3)cc(C(F)(F)F)c12 (stereo not given)	i	0.2
Cc1ccc(O)c(NC(=O)c2cc(-c3cccnc3)on2)c1	i	-1.8
COc1cccc(NC(=O)Cn2c(=O)n(-c3ccc(C)cc3)c(=O)c3c2cnn3C)c1	i	0.38
C=Cc1ccc(CN(c2nc3nc(C)cc(C)n3n2)S(=O)(=O)c2ccccc2)cc1	i	-0.4
CC(=O)N1CCc2c(sc3nc(SCc4cccc(C)c4)n(-c4ccccc4)c(=O)c23)C1	i	-1.6
O=C(c1ccc(Cl)cc1)N1CCC(c2nc(-c3ccc(Cl)cc3)no2)CC1	i	-0.01
Cc1ccc(-c2c(Nc3ccccc3)oc3c2c(=O)n(C)c(=O)n3C)cc1	i	1.9
Cc1ccc2oc(-c3nnc(C(=O)NCCc4sccc4C)o3)c(C)c2c1	i	2.2
CCCC(O)c1nc2ccccc2n1CCOc1cccc(C)c1C (stereo not given)	i	0.17
Cc1ccc(S(=O)(=O)N2CCCN(c3nc4cccnc4s3)CC2)cc1C	i	0.56
CCCOc1ccc(CN2CCCC2c2cc(C)no2)cc1 (stereo not given)	i	0.08

An excerpt from above in order of the Choline anaer gr early value, high to low:
SMILES	Choline anaer gr	Choline anaer gr early
Cc1ccc(-c2c(Nc3ccccc3)oc3c2c(=O)n(C)c(=O)n3C)cc1	i	1.9
O=C(NCc1cccc(Cl)c1)C1CCCN(c2nc3ncccc3n3cccc23)C1 (stereo not given)	i	1.2
Cc1nn(C)c2nc(OC(C)C(=O)N3CCc4ccccc4C3)cc(C(F)(F)F)c12 (stereo not given)	i	0.2
Cc1c(Cl)cccc1NS(=O)(=O)c1cc(-c2nc(C(C)(C)C)cs2)cs1	i	0.04
O=C(c1ccc(Cl)cc1)N1CCC(c2nc(-c3ccc(Cl)cc3)no2)CC1	i	-0.01
C=Cc1ccc(CN(c2nc3nc(C)cc(C)n3n2)S(=O)(=O)c2ccccc2)cc1	i	-0.4
CC(=O)N1CCc2c(sc3nc(SCc4cccc(C)c4)n(-c4ccccc4)c(=O)c23)C1	i	-1.6

Later entries:
SMILES	Choline anaer gr	Choline anaer gr early
CCS(=O)(=O)c1nc2ccc(NS(=O)(=O)c3c(C)c(C)cc(C)c3C)cc2s1	i	0.03
COc1ccccc1C1=NS(=O)(=O)N(C)C(C(=O)Nc2ccn(Cc3ccc(C)cc3)n2)=C1	i	1.6
Cc1ccc(-c2nc(CNC(=O)c3ccc(Cl)nc3)no2)cc1	i	0.86
CCCCN(C)C(=O)C1CCN(c2cncnc2N2CCOCC2)CC1	i	0.43
Cc1ccc(OC(C)C(=O)Nc2noc(-c3ccc(Cl)cc3)n2)cc1C (stereo not given)	i	-0.28
COC(=O)c1c(-c2ccc(F)cc2)noc1NCc1ccc2c(c1)OCO2	i	1.5
Cn1c(=O)c2nc(SCCC(=O)Nc3c(F)cccc3F)n(C)c2n(C)c1=O	i	-0.5
CCN(CC)CCNC(=O)c1ccc(Oc2nccnc2Sc2ccc(Cl)cc2)cc1	i	-0.17
Cc1ccc(-c2noc(CCC(=O)Nc3cccc(CCc4nc5ccc(C)cc5[nH]4)c3)n2)cc1	i	0.79
COc1cc(CNC(=O)CCCCC=CC(C)C)ccc1O	i	-1.2
CNC(=O)c1c(NC(=O)c2ccc(S(=O)(=O)N3CCc4ccccc4C3)cc2)sc2c1CCC2	i	0.24
O=C(NCCCc1ccccc1)C1CCCN(c2nc3ccccc3n3cccc23)C1 (stereo not given)	i	0.37
O=C(Cn1c2ncccc2c(=O)n1-c1ccccc1)NCc1ccccc1	i	-1.8
O=C(CC1=NS(=O)(=O)c2ccccc2N1)N1CCN(c2cccc(Cl)c2)CC1	i	0.1
COc1ccc(N2CCN(Cc3nc4c(c(=O)n(C)c(=O)n4C)n3Cc3ccccc3)CC2)cc1	i	-0.51

Among those listed so far, three contain a tert-butyl group:
SMILES	Choline anaer gr	Choline anaer gr early
CC1=C(c2ccc(C)cc2)S(=O)(=O)N=C1N1CCCN(C(=O)C(C)(C)C)CC1	i	-0.06
COc1cc2c(=O)n(Cc3ccccc3)c(=O)n(CC(=O)C(C)(C)C)c2cc1OC	i	-0.67
Cc1c(Cl)cccc1NS(=O)(=O)c1cc(-c2nc(C(C)(C)C)cs2)cs1	i	0.04

Compound profiles (already shown):
Clc1ccccc1-n1ncc2c(N3CCN(c4ccccc4)CC3)ncnc21 is listed with Choline anaer gr = i; Choline anaer gr early = 0.65
CCN(Cc1ccccc1)C(=O)c1cc2c(=O)n3ccccc3nc2n1C is listed with Choline anaer gr = i; Choline anaer gr early = 0.19

(continued)
SMILES	Choline anaer gr	Choline anaer gr early
COc1ccc(S(=O)(=O)N2CCC(NC(=O)NCC3CCCO3)CC2)cc1 (stereo not given)	i	-1.8
CCc1cc2c(cc3n2CC(C)(C(=O)NC2CCCCC2)N(Cc2ccc4c(c2)OCO4)C3=O)s1 (stereo not given)	i	1.1
Cn1c(SCc2ccc(F)cc2)nnc1-c1ccc2c(c1)OCCCO2	i	-0.52
CN(CC(=O)N1CCN(c2ccc(Cl)cc2)CC1)S(=O)(=O)c1c[nH]c(C(=O)N2CCCC2)c1	i	0.54
CC1CCN(C(=O)c2cc3n(n2)CC(C)(C(=O)NC2CCCCC2)N(C)C3=O)CC1 (stereo not given)	i	0.9
CC(=O)Nc1ccc2c(c1)nc(CN1CCC(C)CC1)n2C	i	-0.08
COc1cc2c(=O)n(Cc3ccc(C(=O)NCCC(C)C)cc3)c(=O)n(CC(=O)N3CCCC3)c2cc1OC	i	-0.09
O=C(O)c1cc(NS(=O)(=O)c2cccc(F)c2)ccc1N1CCN(c2cccc(Cl)c2)CC1	i	-0.97
CCc1cccc(C)c1NC(=O)c1cc(-c2cccnc2)on1	i	-1
O=C(COc1ccc(Br)cc1)NCC(c1ccccc1)c1c[nH]c2ccccc12 (stereo not given)	i	0.39
COc1ccc(-c2noc(-c3cc(C4CC4)[nH]n3)n2)cc1	i	2.1
O=C1COc2cc(S(=O)(=O)N3CCCC3C(=O)N3CCc4ccccc43)c(Cl)cc2N1 (stereo not given)	i	0.37
O=C(C1CCN(c2ccc(Sc3ccc(Br)cc3)nn2)CC1)N1CCOCC1	i	-0.56
CN(Cc1ccccc1)c1ncnc2c1c(-c1ccccc1)cn2-c1ccccc1	i	1.7
CCOC(=O)CNC(=O)NCCn1cnc2cc(C(=O)N3CCCC3)ccc21	i	-0.81
CN(CCc1noc(-c2ccc(C(=O)N3CCOCC3)cc2)n1)C(=O)C1CCC1	i	0.56
CCOC(=O)c1sc(NC(=O)c2sc3ccccc3c2Cl)c(C(=O)OCC)c1C	i	0.16

Arranged by molecular weight (ascending): some entries from above.
SMILES	Choline anaer gr	Choline anaer gr early
O=C(CN1C(=O)C2CCCC2=Nc2ccccc21)NC1CCc2ccccc21 (stereo not given)	i	0.14
CN(CCc1noc(-c2ccc(C(=O)N3CCOCC3)cc2)n1)C(=O)C1CCC1	i	0.56
Cc1nn(C)c2nc(OC(C)C(=O)N3CCc4ccccc4C3)cc(C(F)(F)F)c12 (stereo not given)	i	0.2

Bioassay records: PubChem BioAssay, ICCB-Longwood Screening Facility, Harvard Medical School
